NPYLR7 ag – agonists of mosquito NPYLR7 receptor, primary screen, cell-based, Aedes aegypti, calcium fluorescence, mosquito biting behavior; activation, % at 10 µM; actives 0.15% (n = 270,000); HEK293T NPYLR7/Galpha15, GCaMP6s calcium fluorescence; in the data active means activation above about 40%;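 further: 0% = vehicle and 100% = reference agonist at the receptor; some compounds past the cut are filed as inactive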
NPYLR7 ag max-min – also measured in NPYLR7 ag; calls as there; activation, %; measured here: Max-Min RFU normalised activation; some inactives read as strong as hits;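 span of the calcium signal over five minutes; 0% = vehicle and 100% = native peptide agonist; compound fluorescence can raise it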
* marks the source's active call; other numbers are inactive results; & = joins results of further samples.

Each structure is followed by: NPYLR7 ag	NPYLR7 ag max-min
COc1cccc(C(=O)Nc2c(-c3cccc(Cl)c3)nc3cc(C)ccn23)c1
    -9.5	-8.2
CCOC(=O)C1CCN(C(=O)CC(c2cccc3c2OCO3)c2c[nH]c3ccccc23)CC1 (stereo unspecified)
    1.5	12.0
CC(Cn1cnc2ccccc2c1=O)NCc1noc(C2CCCC2)n1 (stereo unspecified)
    8.6	-0.1
CCS(=O)(=O)Oc1ccccc1CN(Cc1ccc(F)cc1)C(=O)Nc1ccccc1OC
    21.6	25.1
Cn1ncnc1CNc1ccc(Cl)cc1C(=O)N1CCCC1
    -3.8	-5.6
CN(C)C(=O)CNc1cc2c(cc1Br)OCCO2
    3.4	0.6
CCOC(=O)c1c(NC(=O)Cc2ccc(OC)cc2)sc(C(=O)Nc2cccc(OC)c2)c1C
    -5.1	-2.2
O=S(=O)(Cc1ccc(Cl)cc1)c1ccc(NCCCN2CCOCC2)nn1
    1.7	-3.2
CCn1nc(C)c(C(=O)NCc2nc(-c3cccc(C)c3)no2)c1C
    -11.0	-14.7
COc1cc(C2c3cccn3CCCN2Cc2cc(F)ccc2F)cc(OC)c1OC (stereo unspecified)
    17.4	20.2
Cc1ccc(F)c2c1N(C(=O)c1cnn(C)c1C(F)F)CCC2
    -4.5	-9.4
CN1C(=O)C(Cc2ccccc2)NC12CCN(C(=S)NC1CC1)CC2 (stereo unspecified)
    7.6	6.5
CC1=NN(c2ccc(C(=O)O)cc2)C(=O)/C1=C\c1ccc(-c2ccc(C)cc2[N+](=O)[O-])o1
    -6.4	-11.1
O=C(c1cnn2c1CCCC2)N1[C@@H]2CC[C@H]1CC(O)C2 (stereo partly specified)
    11.7	10.5
CN(C(=O)CCn1nnnc1CN1CCOCC1)C1CC(C)(C)NC(C)(C)C1
    1.9&0.8	-1.1&0.1
CCc1cccc2c(C(CC(=O)NCc3ccc(F)cc3)c3ccc(OC)c(OC)c3)c[nH]c12 (stereo unspecified)
    7.6	0.9
CC(c1ccccc1)n1c(CCn2ncc3ccccc3c2=O)n[nH]c1=S (stereo unspecified)
    2.3&0.9	46.5&3.4
COC(=O)c1scc(-c2ccc(C)cc2)c1S(=O)(=O)N1c2ccccc2CC1C (stereo unspecified)
    10.3	8.7
CC(=O)Nc1cccc(NC(=O)C=Cc2csc(C)n2)c1
    -1.5	-0.3
COc1cccc2sc(=NC(=O)c3cc(C)no3)n(C)c12
    5.9	10.8
O=C(c1cc(=O)c(OCc2ccc(F)cc2)c[nH]1)N1CCN(c2ccc(F)cc2)CC1
    1.5	-2.3
CNC(=O)c1ccc(CN2CCCC(CCc3ccc(F)cc3F)C2)o1 (stereo unspecified)
    2.3	0.7
Cc1cc(C)c(CNC(=O)c2ccc3ccccc3n2)c(=O)[nH]1
    -4.0	-4.1
CCOC(=O)c1nn(-c2ccccc2C)c(=O)cc1OCc1ccccc1C
    13.4	8.8
Cc1ccc(Cc2nc(CSc3nnnn3C)cs2)cc1
    12.1	18.4
CC(C)C(=O)Nc1cccc(-c2cccc3c2CCNC3)c1
    2.9	1.4
O=C(c1ccc(CSc2ccc([N+](=O)[O-])cn2)cc1)N1C2CCC1CC(Oc1ccc3c(c1)OCO3)C2 (stereo unspecified)
    9.9	-2.0
CC(=O)c1ccc(NC(=O)c2cccn(OCc3ccc(F)cc3)c2=O)cc1
    10.9	7.9
Cc1c(C(=O)NCCCN2CCCCC2C)cc(-c2ccccc2)n1-c1ccccc1Cl (stereo unspecified)
    -9.5	-10.7
CC(C)N(Cc1cccc(OS(C)(=O)=O)c1)S(=O)(=O)c1ccc2ccccc2c1
    -10.8	-16.3
Cc1cc(CN2CCC(c3cc(Cc4ccccc4)[nH]n3)CC2)n[nH]1
    29.7	13.0
Nc1cc([N+](=O)[O-])ccc1Nc1ccccc1
    5.9	6.5
Cc1nc(C)c(CC(=O)NC2CC(=O)N(C3CCCCCC3)C2)c(=O)[nH]1 (stereo unspecified)
    8.8	4.9
Cn1c(C(=O)N2CCCC3(CC2)CNC(=O)O3)ccc1-c1ccccc1 (stereo unspecified)
    1.7	10.3
COc1ccc(C(=O)N2CCCC2C(=O)Nc2nnc(-c3ccc(Br)cc3)s2)cc1 (stereo unspecified)
    21.1	24.6
CCCCN1CCCCC1(C)C(=O)NCc1ccc2c(c1)OCO2 (stereo unspecified)
    3.0	1.4
CCOC(=O)CC(=O)N1CCSC1COc1ccccc1OC (stereo unspecified)
    8.1	8.7
O=C(C1CCN(C2CCN(Cc3ccccc3-c3ccco3)CC2)CC1)N1CCCC1
    3.2&5.6	1.6&5.0
CCOC(=O)C1C(=O)C=C(c2cccs2)CC1c1ccccc1 (stereo unspecified)
    7.5	11.1
O=C(c1ccccc1)c1ccc2c3c(cccc13)C(=O)N(c1ccccc1)C2=O
    -15.3	-26.8
O=C(c1ccco1)N(CCN1CCOCC1)c1nc2c(Cl)cccc2s1
    -3.7	-4.9
COCCOc1nc(-c2cccc(C(F)(F)F)c2)n(-c2ccc(NC(=O)c3ccccc3Br)cc2)n1
    5.3	4.8
Cc1cc(C(=O)NC2(CN3CCOCC3)CCCC2)n[nH]1
    9.9	8.8
Cc1cccc(Cc2nc3c(c(N4CCOCC4)n2)CN(C(=O)CCl)CC3)c1
    19.2	16.3
O=C(Nc1cccc(Br)c1)N1CCSC1c1cccc(Oc2ccccc2)c1 (stereo unspecified)
    -2.9	-2.4
Cc1nc(N2CCOCC2)ccc1NC(=O)c1ccc(OCC(N)=O)cc1
    0.4	-0.5
CC(C)CN(Cc1c(-c2ccccc2)nn(C)c1N(C)C)CC(O)Cc1ccccc1 (stereo unspecified)
    -3.8	7.3
CCn1cccc(-c2nnc(SCC(=O)Nc3nccs3)n2C)c1=O
    2.9	0.7
COc1cccc(CS(=O)(=O)NCCc2ccc(N(C)C)cc2)c1
    9.6	1.4
Cc1ccc(C(=O)N2CCN(S(=O)(=O)c3ccc4ccccc4c3)CC2)s1
    -1.5	-2.8
CCOC(=O)c1[nH]ncc1CN1CCCC(N(C)CCc2ccc(OC)c(OC)c2)C1 (stereo unspecified)
    6.0	3.7
CCCc1nc(N2CCN(C(C)=O)CC2)c2c(-c3ccccc3)noc2n1
    0.8	-2.6
c1cc(Cn2ccnc2C2CCCC2)c2cc[nH]c2c1
    -6.9	-7.5
COc1ccc(OC)c(-n2cnnc2C(C)n2cccn2)c1 (stereo unspecified)
    16.0	11.0
OC(COc1ccc(Br)cc1)CN1CCN(CC(O)COc2ccc(Br)cc2)CC1 (stereo unspecified)
    1.0	0.6
COC(=O)c1ccc(CSC2=NN3CCS(=O)(=O)N=C3S2)cc1
    5.6	5.9
Cc1ccccc1C(NC(=O)Cn1[nH]c(=O)ccc1=O)c1ccncc1 (stereo unspecified)
    1.3	-1.3
CCOC(=O)c1c(NC(=O)CCl)sc2c1CCN(CC)C2
    -6.3	-10.1
CCc1ccc(S(=O)(=O)N(CC(=O)NC2CC2)C2CC2)cc1
    10.2	6.1
Cc1ccc(NC(C)(C)C(=O)NC[C@@H]2CCNC[C@H]2O)cc1
    2.5	0.3

(listing goes on)
Each structure is followed by: NPYLR7 ag	NPYLR7 ag max-min
CN(CC(=O)Nc1ccnn1C1CCCCC1)S(=O)(=O)c1cccs1
    10.3	4.4
CC(=O)Cc1nsc(N(C)C(=O)/C=C/c2ccc(C)o2)n1
    6.7	4.4
CCOC(=O)NC(=S)c1ccc[nH]1
    2.8	4.6
COCCNc1nnc(SC(C)C(=O)Nc2cccc([N+](=O)[O-])c2)s1 (stereo unspecified)
    -7.5	26.7
CC(Oc1ccc(Cl)cc1Cl)C(=O)NC(c1cccc(F)c1)c1nccn1C (stereo unspecified)
    2.6	9.0
CC1CN(c2ncnc3sccc23)C(c2ccccc2)CO1 (stereo unspecified)
    1.7	0.2
CCCCCCn1c(Br)nc2c1c(=O)n(C)c(=O)n2C
    2.3	-4.8
O=C(CN(CCCN1CCOCC1)C(=O)c1ccc(Cl)c(Cl)c1)N(Cc1ccccc1)Cc1ccco1
    0.3	8.7
COC(=O)c1ccc(Cn2c(C)c(C(=O)NCCC#N)sc2=O)o1
    11.3	4.1
CSc1ccc(/C=C2N=C(/C=C/c3ccc(Cl)cc3)OC/2=O)cc1
    -10.5	-12.5
CCCOC1CCCN(C(=O)c2ccc(OC3CCN(Cc4ccccn4)CC3)cc2)C1 (stereo unspecified)
    5.9	6.1
Cc1nnc(-c2cccc(NC(=O)C3CCN(C(=O)C4CC=CCC4)CC3)c2)s1 (stereo unspecified)
    -5.3	-5.4
Cc1cc(F)ccc1Oc1cc(N2CCN(C(=O)Cc3ccc(F)cc3)C(C)C2)ncn1 (stereo unspecified)
    -1.6	2.8
O=c1c2cnc3nc(C(F)(F)F)nn3c2ccn1CCCN1CCOCC1
    -3.1	-1.4
CC(C)C(O)c1c(Cl)cccc1Cl (stereo unspecified)
    -4.3	99.6

The last 4 compounds of the part before open the next one:
Each structure is followed by: NPYLR7 ag	NPYLR7 ag max-min
Cc1nnc(-c2cccc(NC(=O)C3CCN(C(=O)C4CC=CCC4)CC3)c2)s1 (stereo unspecified)
    -5.3	-5.4
Cc1cc(F)ccc1Oc1cc(N2CCN(C(=O)Cc3ccc(F)cc3)C(C)C2)ncn1 (stereo unspecified)
    -1.6	2.8
O=c1c2cnc3nc(C(F)(F)F)nn3c2ccn1CCCN1CCOCC1
    -3.1	-1.4
CC(C)C(O)c1c(Cl)cccc1Cl (stereo unspecified)
    -4.3	99.6
Cc1ccc(C(=O)N(CC(=O)Nc2nc(CC(=O)N3CCN(c4ccc([N+](=O)[O-])cc4)CC3)cs2)C(C)C)cc1
    -6.3	3.4
Oc1oc(-c2ccc(Br)cc2)nc1C=Nc1ccccc1Cl
    -2.4	-7.5
Cc1cc(C)n2nc(C(=O)N3CCc4c(c(C(=O)N5CCOCC5)nn4CCC(C)C)C3)cc2n1
    10.0	0.0
COc1cc(OC)nc(C(NC(=O)C2CCN(Cc3ccccc3F)CC2)c2ccc(F)cc2)n1 (stereo unspecified)
    6.5	7.6
Cc1ccccc1OC1CN(C(=O)c2ccc3[nH]c(=O)[nH]c3c2)C1
    6.9	2.3
Cc1cc(C(=O)N2CCCC2C(=O)Nc2ccc(-c3cccc(F)c3)cc2)no1 (stereo unspecified)
    19.0	9.1
O=C(CN1CCCN(C(=O)C2CCCO2)CC1)NCCc1ccc(F)cc1 (stereo unspecified)
    26.5	20.1
COC(=O)c1ccc(NC(=O)c2cccn(OCc3cccc([N+](=O)[O-])c3)c2=O)cc1
    8.4	7.9
Cc1cc2nc(-c3cccc(NC(=O)c4ccccc4[N+](=O)[O-])c3)oc2cc1C
    4.7	3.4
CCOC(=O)C1=C(C)N=c2s/c(=C\c3cccc(OCC(=O)O)c3)c(=O)n2C1c1ccccc1 (stereo unspecified)
    -12.0	-14.4
O=C(c1ccc(Cl)nc1)N(Cc1nc2cc(Cl)ccc2o1)C1CC1
    2.7	-1.5
N#Cc1c(-c2ccccc2Cl)c(C#N)c2nc3ccccc3n2c1N
    1.4	0.2
Cc1ccc(OCc2ccc(-c3nc(C#N)c(N4CCN(C)CC4)o3)o2)cc1
    -0.4	13.8
O=C(NCCc1ccccc1)C1CCCN(C2CCN(c3ncnc4[nH]ccc34)CC2)C1 (stereo unspecified)
    5.9	-2.0
COC(=O)NN=CC1=CCC2CC1C2(C)C (stereo unspecified)
    5.9	4.0
CCC(C)N(Cc1ccc(C(C)(C)O)o1)Cc1ccccc1OC (stereo unspecified)
    13.5	15.6
CN[C@@H](C)C(=O)N[C@H]1CN(C(=O)CC(C)C)CC[C@H]2CC[C@@H](C(=O)NC(c3ccccc3)c3ccccc3)N2C1=O
    14.5	1.6
CCOC(=O)c1c[nH]c2ccc(F)cc2c1=O
    1.1	5.5
COc1cc(NC(=O)c2c(C)oc3c2C(=O)CCC3)ccc1NC(=O)CC(C)C
    -2.3	-9.2
CC(On1nnc2ccccc21)C(=O)Nc1ccc(C#N)cc1 (stereo unspecified)
    13.3	8.1
CCC(=O)Nc1ccc(S(=O)(=O)NCCn2nc(-c3ccco3)ccc2=O)cc1
    4.0	1.6
O=C(COc1ccccc1)NCCCn1nc(-c2ccccc2)ccc1=O
    -0.7	-1.8
C1CCc2sc(NC3CCCC3)nc2C1
    1.9	2.5
CCOC(=O)C1C(=O)C=C(c2cccs2)CC1c1ccccc1OC (stereo unspecified)
    11.6	16.1
Cc1cc2n(n1)CC(CNCc1c(C)noc1C)CN2 (stereo unspecified)
    5.0	-0.5
Cc1ccccc1CN1N=NC2C(=O)N(c3ccc(Cl)cc3)C(=O)C21 (stereo unspecified)
    9.3	0.7
COc1cc(OC)cc(C(=O)OCCN(C2=NS(=O)(=O)c3ccccc32)c2ccccc2OC)c1
    10.7	8.2
Cc1sc2nc(SCC(=O)NC(C)C(C)C)n(C3CCCC3)c(=O)c2c1C (stereo unspecified)
    0.8	-1.2
COC[C@H](Cc1ccccc1)NC(=O)c1cccnc1Oc1ccc(Cl)cc1
    1.8	1.3
CCn1c(=NC(=O)c2ccc3ncsc3c2)sc2cccc(OC)c21
    3.0	-1.5
NC(=O)CN1CCC=C(CNC(=O)COc2ccccc2)C1
    -5.7	-5.4
COc1ccc(C(=O)N2CCN(c3cc(Oc4ccccc4Cl)ncn3)CC2)cc1
    12.7	10.5
O=C(c1ccco1)N1C[C@H]2OC(=O)N(CCCN3CCOCC3)[C@H]2C1
    -4.0	-8.4
CC(C)c1noc(CN(C)C2CCN(C(=O)c3cccs3)CC2)n1
    5.9	3.5
c1ccc(-c2nc3c(c(NC4CCCNC4)n2)CCC3)cc1 (stereo unspecified)
    -3.2	-8.5
Cc1ccn2c(NC(=O)C(C)C)c(-c3ccc(Cl)cc3)nc2c1
    -3.4	3.5
CCCc1cc(C(=O)N2CCC(C(=O)O)CC2)n[nH]1
    -7.7	-13.4

Some of the compounds tested; rates above refer to the full screens.
